Screening results (PubChem BioAssay)
KCNQ2 enhance: enhances the rat KCNQ2 potassium channel. CHO-K1 KCNQ2, FluxOR thallium flux fluorescence; active compounds read high. B-score at 10 µM. 310,000 compounds, 0.54% hits. AID 2239;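 active = fluorescence ratio B-score at least 3 SD of library B-scores, with initial fluorescence B-score within 3 SD, cut at about 5.3 in these data; same plate scores as AID 2156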;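 note: B-score of peak minus minimum over baseline fluorescence ratio after K+ and Tl+ stimulus; positive B-score means potentiation of KCNQ2 with more thallium influx and brighter signal; only the inactives scoring about 0 or higher are listed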
Target sequence (O88943 whole entry, looked up): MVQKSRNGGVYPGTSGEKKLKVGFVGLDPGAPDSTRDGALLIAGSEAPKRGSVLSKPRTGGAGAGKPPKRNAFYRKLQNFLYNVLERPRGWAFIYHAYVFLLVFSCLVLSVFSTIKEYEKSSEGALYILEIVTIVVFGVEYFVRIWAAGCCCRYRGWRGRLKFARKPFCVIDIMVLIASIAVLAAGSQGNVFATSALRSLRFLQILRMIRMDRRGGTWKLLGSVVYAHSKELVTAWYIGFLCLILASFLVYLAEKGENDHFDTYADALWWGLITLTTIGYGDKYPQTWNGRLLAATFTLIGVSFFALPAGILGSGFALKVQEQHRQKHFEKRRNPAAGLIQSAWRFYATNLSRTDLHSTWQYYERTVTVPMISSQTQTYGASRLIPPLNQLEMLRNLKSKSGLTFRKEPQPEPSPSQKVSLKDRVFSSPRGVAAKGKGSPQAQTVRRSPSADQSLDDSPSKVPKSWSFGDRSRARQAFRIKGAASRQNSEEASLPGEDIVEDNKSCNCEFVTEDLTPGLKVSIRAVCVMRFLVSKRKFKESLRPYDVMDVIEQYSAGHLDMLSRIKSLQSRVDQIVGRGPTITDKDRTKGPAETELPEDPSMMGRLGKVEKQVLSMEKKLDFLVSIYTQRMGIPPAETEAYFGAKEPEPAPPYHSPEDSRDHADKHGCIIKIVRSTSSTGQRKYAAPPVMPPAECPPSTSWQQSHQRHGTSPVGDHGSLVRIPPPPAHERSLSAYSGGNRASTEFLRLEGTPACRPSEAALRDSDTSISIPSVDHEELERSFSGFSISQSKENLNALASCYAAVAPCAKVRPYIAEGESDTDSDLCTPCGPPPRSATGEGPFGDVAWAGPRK
KCNQ2 enhance baseline: second read-out of KCNQ2 enhance, no call of its own (marks repeat the call); B-score; compound at 10 µM; measured here: initial fluorescence intensity artifact check;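 brightness before thallium and not channel activity; 0 = typical well and far values either way flag optical interference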
Numbers without * were called inactive; . = no result given. The list is partial; count on the stated rates, not on these rows.

The line under a structure holds: KCNQ2 enhance, KCNQ2 enhance baseline
Cc1ccc(NC(=O)c2ccc3c(=O)n4c(nc3c2)CCCCC4)nc1
→ 2.2, 0.08
CCOc1ncccc1C(=O)NCC(c1ccccc1)N(C)C (centres undefined)
→ 2, 1.6
CCO[C@H]1OC(C(=O)N2CCOCC2)=C[C@@H](c2ccc(C(F)(F)F)cc2)[C@@H]1CCCO
→ 0.19, -1.2
CCCn1c(=O)n(CC(=O)NCC2CCCO2)c(=O)c2c3c(sc21)COC(C)(C)C3 (centres undefined)
→ 0.31, 1.4
CCOC(=O)Cc1csc(NC(=O)CSC2=NCCS2)n1
→ 0.09, -1.6
CCO[C@@H]1OC(C(N)=O)=C[C@H](C2CCCCC2)[C@H]1CCCO
→ 0.26, 0.22
O=S(=O)(Nc1ccccc1)c1ccc(F)cc1
→ 0.18, 1.3
CCc1ccc(NC(=O)C(C)Nc2ccc(S(=O)(=O)NC(C)=O)cc2)cc1 (centres undefined)
→ 1.8, -1.6
C=C1C2(C(=O)Nc3ccc(SC(F)F)cc3)CCC(C2)C1(C)C (centres undefined)
→ 1.9, -0.19
CC(C)[C@H](N)C(=O)NC[C@H]1CC[C@H](C(=O)N[C@@H](Cc2ccccc2)C(=O)O)CC1
→ 1.6, -0.37
O=c1oc2ccccc2c(N2CCOCC2)c1[N+](=O)[O-]
→ 0.03, -0.2
Cc1ccc(-c2nc3sc4c(N)ncnc4c3c3c2CCCC3)cc1
→ 0.09, 0.65
O=C(Nc1ccon1)c1ccc(Cl)c(S(=O)(=O)N2CCCCC2)c1
→ 1.8, -0.89
O=C(OCn1ncc(Br)c(Br)c1=O)c1ccc(F)cc1
→ -5.6, .
O=C(CCCOc1ccc(Cl)cc1Cl)NN1CCOCC1
→ 2.4, -1.9
COc1cccc(NC(=O)C(Sc2nc3ccccc3c(=O)n2CC(C)C)c2ccccc2)c1 (centres undefined)
→ 0.31, -1.2
c1ccc2c(c1)CC(N1CCCCC1)c1ccccc1N2 (centres undefined)
→ 0.09, 0.45
O=C(Cn1ncc2c3ccccc3n(Cc3ccccc3)c2c1=O)N1CCN(c2ncccn2)CC1
→ 4.7, -0.25
CC(C)(C)c1ccc(C(=O)NCCN2CCOCC2)cc1
→ 1.8, 0.97
CC12CCC(c3c(C(=O)O)nn(-c4ccc(F)cc4)c31)C2(C)C (centres undefined)
→ 0.47, 1.6
COCCSc1nnc(NS(=O)(=O)c2ccccc2)s1
→ 0.03, -0.52
CSc1ccc(Cl)c(C(=O)OCC(=O)N(C)CCC#N)c1
→ 0.56, 0.93
CC1(C)Cc2c(cnn2-c2cccc(F)c2)C(NC(=O)c2ccc[n+]([O-])c2)C1 (centres undefined)
→ 0.16, 0.03
CCOC(=O)C(CC)/C(C)=N\NC(=O)c1ccccc1O (centres undefined)
→ 0.41, 0.31
Cc1nc2nc(COc3ccccc3)[nH]n2c(=O)c1Cc1ccccc1
→ 0.33, 3.6
O=C(C1CCN(C2CCN(Cc3ccc4cc(F)ccc4n3)CC2)CC1)N1CCCC1
→ 0.3, 0.16
CCCC(C)C(=O)OCC(=O)Nc1ccc(Br)cc1 (centres undefined)
→ 0.78, -0.02
CCSc1nnc(NC(=O)CSc2nnc(CNC(=O)c3ccc(OC)c(OC)c3)o2)s1
→ 2.4, -1
Cc1nc2ccccc2c2oc(C(=O)NCCN3CCCCC3C)cc12 (centres undefined)
→ 1.1, -0.38
Cc1nc2ncnn2c(Nc2ccc3c(c2)OCO3)c1Cc1ccccc1
→ 0.85, 1.8
Cc1ccc2ccc(S(=O)(=O)NCc3ccccn3)cc2c1
→ 1.4, 0.33
Cc1cc(OC(C)C(=O)NCc2cccnc2)c2c(C)c(Cc3ccccc3)c(=O)oc2c1 (centres undefined)
→ 0.01, -2
Cn1cc(S(=O)(=O)NC2CCCC2)c(=O)n(C)c1=O
→ 0.94, -0.17
CCOc1ccc(N2CC(C(=O)N3CCN(C(=O)c4ccco4)CC3)CC2=O)cc1 (centres undefined)
→ 0.01, -0.46
CCOc1cc2[nH]c(=S)n(CCCN3CCCC3=O)c(=O)c2cc1OCC
→ 0.22, -1.7
CCOc1ccc(NC(=O)c2nc(SCC)ncc2Cl)cc1
→ 0.5, 0.55
O=C(O)C(Cc1ccc(O)cc1)N1C(=O)c2ccccc2C1=O (centres undefined)
→ 0.37, 0.13
O=C1c2cccc3cccc(c23)C(=O)C1(O)O
→ 2.7, -2.3
COc1ccc(Nc2cc3n(c(=O)n2)CCc2cc(OC)c(OC)cc2-3)cc1
→ 0.56, -1.3
O=C(CN1C(=O)NC2(CCOc3ccccc32)C1=O)c1ccc[nH]1 (centres undefined)
→ 2.6, -1.2
COc1ccc(OCc2nnc(SCC(N)=O)n2N)cc1
→ 0.77, 0.95
O=C(COC(=O)c1ccc(O)cc1)Nc1ccc(OC(F)F)cc1
→ 0.63, 2
C/C(=C\C(=O)OCC(=O)NCc1ccccc1)C(=O)OCC(=O)NCc1ccccc1
→ 0.79, 0.53
CC(C(=O)NCCc1ccc(F)cc1)N1CCN(Cc2ccccc2)CC1 (centres undefined)
→ 0.21, 0.35
O=S(=O)(Oc1ccccc1/C=N/n1cnnc1)c1ccccc1
→ 0.96, -0.39
COC(=O)c1cc2c(ccn2-c2ccc(F)cc2)n1Cc1ccc(OC)cc1
→ 0.04, 1.4
COc1ccc(N(CC(=O)NCCSc2ccccc2)S(=O)(=O)c2ccccc2)cc1OC
→ 1.2, 0.41
Cc1nc2oc3c(NCc4ccccc4)ncnc3c2c2c1COC(C)(C)C2
→ 1.5, -1.5
Cc1ccc2c(c1)C(c1ccc(F)cc1)N(C(=O)c1cc3ccccc3oc1=O)CC(=O)N2 (centres undefined)
→ 1.1, -0.01
CSc1ccc(/C=C/C(=O)NC(=O)c2ccccc2O)cc1
→ 1.1, -0.64
CCOC(=O)Cc1nnc(Nc2cccc(O)c2)c2ccccc12
→ 0.01, 0.03
Cc1ccc2oc(C(=O)NC3CCS(=O)(=O)C3)cc(=O)c2c1 (centres undefined)
→ 0.67, -1.4
Cn1c(SCC(=O)N2CCOCC2)nc2cccnc21
→ 0.17, -1.2
CCOC(=O)C1CCN(C(=O)c2cccs2)CC1
→ 1.1, 0.22
O=C(c1ccco1)N1N=C(c2ccc(Cl)cc2)CC1(O)C(F)(F)F (centres undefined)
→ 0.3, -0.38
CC(=O)NC(CC(=O)OCC(=O)N1CCN(S(=O)(=O)c2ccc(Cl)cc2)CC1)c1ccccc1 (centres undefined)
→ 0.04, -1
CCOc1ccccc1CNC(=O)CCNS(=O)(=O)c1ccc2[nH]c(=O)oc2c1
→ 0.67, -0.45
Cc1c(Cl)cccc1N1C(=O)CC(N(O)c2ccccc2)C1=O (centres undefined)
→ 0.08, 0.67
COc1ccc(/C=C/c2nnc(NC(=O)C(C)C)s2)cc1
→ 1.6, 0.04
COCCNC(=O)CSc1ccccc1C(=O)NCC1CCCCC1
→ 0.1, 0.69

(next part)
The line under a structure holds: KCNQ2 enhance, KCNQ2 enhance baseline
CCCCCCCCCC(=O)Nn1cnc2ccccc2c1=O
→ 1.6, 0.18
Cc1c(NC(=O)CSCc2ccccc2)cccc1C(=O)O
→ 1.3, -0.19
O=C(COC(=O)c1cn(-c2ccccc2)nc1-c1ccc(F)cc1)Nc1ncc(Cl)cc1Cl
→ 0.14, 0.19
CCCC(c1nnnn1CCc1ccccc1)N1CCC(C(N)=O)CC1 (centres undefined)
→ 0.39, 1.1
CN(Cc1ccco1)C(=O)c1ccc(OC2CCN(Cc3ccccn3)CC2)cc1
→ 1.2, 0.5
CCOC(=O)N1CCN(C(=O)CS(=O)(=O)c2cn(Cc3ccc(Cl)cc3)c3ccccc23)CC1
→ 0.59, 1.1
CCOC(=O)C(NC(=O)CC(C)C)(Nc1sc(C)c(CC)c1C#N)C(F)(F)F (centres undefined)
→ 0.04, -2.1
O=C(O)C1C2CCC(C2)C1C(=O)NCCc1ccccc1 (centres undefined)
→ 0.01, 0.96
COC(=O)C1=C(C)NC2=C(C(=O)CC(C)(C)C2)C1c1ccccn1 (centres undefined)
→ 0.72, 0.4
COc1ccc(N2C(=O)CC(Sc3nc4ccccc4s3)C2=O)cc1OC (centres undefined)
→ 0.18, 0.02
CCOc1ccc(CNc2ccc3c(c2)ncn3C(C)(C)C)cc1
→ 0.96, 0.02
CN(C(=O)CC1C(=O)NCCN1CC1CCCCC1)C1CCOCC1 (centres undefined)
→ 1.1, -0.67
CCCCCCn1c(N2CCC(C)CC2)nc2c1c(=O)[nH]c(=O)n2C
→ 2.8, 0.62
O=C(CC12CC3CC(CC(C3)C1)C2)NC(Cc1ccccc1)C(=O)O (centres undefined)
→ 0.32, 0.03
O=C(CSC(=S)N1CCN(c2ccccc2)CC1)Nc1nc(-c2ccccc2)c(-c2ccccc2)o1
→ 0.92, -0.05
NC(=O)c1ccc(Oc2ncc(C(F)(F)F)cc2Cl)cc1
→ 1.2, -0.57
Cc1cc(C)nc(Nc2n[nH]c(-c3ccccc3N)n2)n1
→ 0.91, -1.9
COc1ccc(C(C(=O)NC(C)(C)C)N(C(=O)CCC(=O)Nc2cc(C)on2)c2cccc(F)c2)cc1 (centres undefined)
→ 5.6*, 0.46*
CN(C(N)=S)c1ccccc1
→ 2.1, -1.8
Cc1cc(C)n(-c2ccc(C(=O)OCC(=O)Nc3ccc(S(=O)(=O)N4CCOCC4)cc3)cc2)n1
→ 0.83, -0.16
Cc1cc(Nc2ccc(F)cc2Cl)n2nc(C)nc2n1
→ 1.3, -0.29
CC(NC(=O)COC(=O)CCc1ccc(S(=O)(=O)N2CCOCC2)cc1)C1CC2CCC1C2 (centres undefined)
→ 0.89, 0.08
N=c1c(S(=O)(=O)c2ccccc2)cc2c(=O)n3ccccc3nc2n1Cc1cccnc1
→ 0.05, 1.2
CN(C(=S)Oc1ccc(C(=O)Nc2ccccc2)cc1)c1ccccc1
→ 4.7, 1.2
CC(=O)Oc1ccc(C(=O)NCCc2ccccc2)cc1
→ 0.71, -0.25
CC(C)(C)OC(=O)[C@H](Cc1ccccc1)NC(=O)c1nc[nH]c1C(=O)NC1CCNCC1
→ 0.93, -0.43
CC(=O)NCC(=O)NC(C(=O)Nc1ccc2c(c1)OCCO2)c1ccc(C)cc1 (centres undefined)
→ 1.4, -0.01
O=C(CCN1C(=O)/C(=C/c2ccccc2Cl)SC1=S)NC1CCS(=O)(=O)C1 (centres undefined)
→ 0.51, 0.17
CC(=O)c1ccc(NC(=O)c2ccc3nc(C)sc3c2)cc1
→ 1.6, -0.82
Cc1cc(O)c(-c2cc(C(=O)Nc3cccnc3)[nH]n2)cc1C
→ 0.7, -0.82
CCOc1cc2c(cc1OCC)C(c1ccccc1)N(c1ccccc1)C(=O)C2 (centres undefined)
→ 0.63, -0.02
O=C(O)CC(NC(=O)C12CC3CC(CC(C3)C1)C2)c1ccc(F)cc1 (centres undefined)
→ 0.9, -0.02
CC(C)(C)NC(=S)NCc1cccnc1
→ 1.3, -0.01
Cc1nn(C(C)C(=O)NCCCN2CCCCC2C)c(=O)c2c1sc1ccccc12 (centres undefined)
→ 0.28, 0.75
Cc1nnc(SCC(=O)c2c(N)n(C)c(=O)n(C)c2=O)n1Cc1ccccc1
→ 0.63, -0.32
Cc1cccc(C(=O)Nc2cccc(OC(=O)c3cccc(C)c3)c2)c1
→ 0.66, 1
CN(C(=O)CSc1nnnn1-c1ccccc1)C1CCS(=O)(=O)C1 (centres undefined)
→ 0.3, 0.1
CC(NC(=O)COC(=O)c1ccco1)c1ccccc1 (centres undefined)
→ 1.5, 0.33
CC(=O)OCc1nc2ccccc2s1
→ 1.4, 0.54
COc1cc(/C=C2/SC(=S)N(Cc3ccccc3)C2=O)ccc1OS(C)(=O)=O
→ 0.02, 1
CCc1ccc(NC(=O)C2CCN(S(=O)(=O)c3ccc4c(c3)N(C(C)=O)CCO4)CC2)cc1
→ 0.01, -2.1
Cc1ccc(CNC(=O)c2ccc(OCC3CCCO3)cc2)cc1 (centres undefined)
→ 0.54, 0.03
CCCOc1ccc(N2C(=O)CC(N(CCCO)C(=O)CC)C2=O)cc1 (centres undefined)
→ 1.2, -1.2
CCc1nc2ccccc2c(=O)n1/N=C/c1ccc(OC)cc1
→ 0.3, -0.43
CCSc1nc(N)c2c(C)c(C)sc2n1
→ 0.49, 0.39
N=c1sccn1CC(=O)NC(=O)NC1CCCC1
→ 0.32, -0.12
CCOCCCNC(=O)c1c[nH]c2ccc(OCC)cc2c1=O
→ 1.5, 0.25
Cc1ccc(-c2nnc(CCC(=O)NCC3C4CC5CC(C4)CC3C5)o2)s1 (centres undefined)
→ 0.15, 0.52
COc1ccc(CN(C(=O)CSc2nnc(-c3ccccc3F)o2)c2ccc(F)cc2)cc1
→ 0.24, -0.53
